GIRK2 activ: GIRK2 channel activation. HEK293-GIRK2 thallium flux, Thallos fluorescence. calls only for hits at 25 µM. 63,000 compounds, 0.05% hits. AID 1259325;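 active means among the strongest 0.2% of first-round signals and kept after retests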;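 further: first round at about 10 µM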
Target sequence (P48051 whole entry, looked up): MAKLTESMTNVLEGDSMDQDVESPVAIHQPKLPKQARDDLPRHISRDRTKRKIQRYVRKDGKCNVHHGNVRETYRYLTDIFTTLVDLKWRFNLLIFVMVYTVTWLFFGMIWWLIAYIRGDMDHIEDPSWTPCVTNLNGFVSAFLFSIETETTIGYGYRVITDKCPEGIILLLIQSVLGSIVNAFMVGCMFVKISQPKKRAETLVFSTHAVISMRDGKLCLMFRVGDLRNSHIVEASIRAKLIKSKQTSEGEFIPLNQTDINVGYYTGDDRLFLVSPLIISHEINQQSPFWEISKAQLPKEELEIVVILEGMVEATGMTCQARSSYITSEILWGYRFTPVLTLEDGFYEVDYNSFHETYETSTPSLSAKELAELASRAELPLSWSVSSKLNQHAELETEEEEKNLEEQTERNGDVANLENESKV
Calls only; i = inactive. The list is partial; count on the stated rates, not on these rows.

SMILES	GIRK2 activ
c1ccc2c(CC3=NCCN3)cccc2c1	i
C[C@H]1COc2c(N3CCN(C)CC3)c(F)cc3c(=O)c(C(=O)O)cn1c23	i
CCCC(=O)O	i
CC(=O)[C@H]1CC[C@H]2[C@@H]3C[C@H](C)C4=CC(=O)CC[C@]4(C)[C@H]3[C@@H](O)C[C@]12C	i
O=C1C2N=NN(Cc3nc(-c4ccccc4Cl)no3)C2C(=O)N1c1ccc2c(c1)CCC2 (stereo unspecified)	i
O=C(O)CCC/C=C\C[C@H]1C(=O)C[C@@H](O)[C@@H]1/C=C/[C@@H](O)CCc1ccccc1	i
CC(Oc1c(Cl)cccc1Cl)C1=NCCN1 (stereo unspecified)	i
CCCn1cc(C(=O)Nc2cc(OC)cc(OC)c2)c(=O)c2ccc(C)nc21	i
O=C(Nc1nnc(-c2ccsc2)o1)C1CC(=O)N(c2ccc(Cl)cc2)C1 (stereo unspecified)	i
COc1cc2nc(N3CCN(C(=O)C4COc5ccccc5O4)CC3)nc(N)c2cc1OC (stereo unspecified)	i
COc1nc(C)nc(Cl)c1NC1=NCCN1	i
O=C(O)CCC/C=C\C[C@@H]1[C@@H](/C=C/C(=O)COc2cccc(C(F)(F)F)c2)[C@H](O)C[C@@H]1O	i
NS(=O)(=O)c1cc2c(cc1C(F)(F)F)NC(Cc1ccccc1)NS2(=O)=O (stereo unspecified)	i
CCOC(=O)C1CCCN(C(=O)c2csc3nc(-c4ccc(F)cc4)cn23)C1 (stereo unspecified)	i
O=C(CCCl)NCCc1ccccc1	i
O=C1N(c2ccccc2)c2ccccc2C1(Cc1ccncc1)Cc1ccncc1	i
COc1ccccc1OCC(O)COC(N)=O (stereo unspecified)	i
Cc1cc2c(s1)Nc1ccccc1N=C2N1CCN(C)CC1	i
CN1CCc2c(c3ccccc3n2Cc2ccc(C(=O)NO)cc2)C1	i
C[C@]12CC3CC(N)(C1)C[C@@](C)(C3)C2	i
CCC1C(=O)OCC1Cc1cncn1C (stereo unspecified)	i
COc1ccccc1C(=O)NCC1(c2ccccc2OC)CCOCC1	i
O=C(O)CCC/C=C\C[C@H]1[C@@H](O)CC(=O)[C@@H]1/C=C/[C@@H](O)COc1cccc(C(F)(F)F)c1	i
O=C(O)CCC/C=C/CC1C(O)CC(O)[C@@H]1CCC(O)CCc1ccccc1 (stereo partly specified)	i

Copied from the results shown (3 entries):
SMILES	GIRK2 activ
CCOC(=O)C1CCCN(C(=O)c2csc3nc(-c4ccc(F)cc4)cn23)C1 (stereo unspecified)	i
O=C(CCCl)NCCc1ccccc1	i
O=C1N(c2ccccc2)c2ccccc2C1(Cc1ccncc1)Cc1ccncc1	i

New compounds follow.
SMILES	GIRK2 activ
CC(C)Cc1ccc(C(C)C(=O)O)cc1 (stereo unspecified)	i
O=c1c(=O)n(-c2ccccc2)ccn1Cc1nc(-c2ccc(Br)cc2)no1	i
CN1CCC(=C2c3ccccc3CCc3sccc32)CC1	i
C=CCc1cc(OC)c2c(c1)C(C)C(c1ccc3c(c1)OCO3)O2 (stereo unspecified)	i
Nc1nc(Nc2ccc(S(N)(=O)=O)cc2)nn1C(=O)c1c(F)cccc1F	i

Some of these compounds in order of SMILES length, rising:
SMILES	GIRK2 activ
CC(C)Cc1ccc(C(C)C(=O)O)cc1 (stereo unspecified)	i
CN1CCC(=C2c3ccccc3CCc3sccc32)CC1	i
Nc1nc(Nc2ccc(S(N)(=O)=O)cc2)nn1C(=O)c1c(F)cccc1F	i

Bioassay records (PubChem BioAssay)
